# Source: PubChem
# 2A StopGo – High Throughput Screening for Foot and Mouth Disease Virus Antivirals. human cells with a luciferase reporter of 2A StopGo recoding; control for the full effect not named in the record. Potency, µM (highest dose often 57.9 µM), for the others: at the top dose signal change, negative = less light. 1.2% of 410,000 active. AID 1159524, 2015; active = well fitted falling curve with a large enough effect; inconclusive = small, poorly fitted or top-dose-only effect; inactive = no such curve, though single readings can be large or run the other way; tested in HEK293T cells; note: % is set by controls: 0 for no effect and ±100 for the full control effect; nearly all actives have a fitted effect of over 45% in size; luciferase light after 4 h
# SARS PLP yeast – qHTS of Yeast-based Assay for SARS-CoV PLP | S. cerevisiae expressing SARS-CoV PLpro, growth rescue; control for the full effect not named in the record | Potency, µM (doses to about 32.9 µM), without a hit: top-dose activity, positive = growth rescue | 0.19% of 330,000 active; active means well fitted rising curve with a large enough effect; inconclusive means small, poorly fitted or top-dose-only effect; inactive means no such curve, though single readings can be large or run the other way; note: 0% is about no effect; nearly all actives have a fitted effect of over 55% in size; growth read by luminescence after 48 h
# Cruzain inh noDet – qHTS Assay for Promiscuous and Specific Inhibitors of Cruzain (without detergent); Cruzipain (Trypanosoma cruzi), P25779; purified cruzain, Z-FR-AMC fluorescence, no detergent; Potency, µM, for the others: max response, negative = inhibition, actives largely listed as inhibitors; 2.3% of 200,000 active;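 note: plate controls were enzyme without inhibitor for no effect and buffer without enzyme for full effect; nearly all actives have a fitted effect of over 40% in size; top concentration of the series not given in the record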
# Target sequence (P25779 123-467 limits assumed): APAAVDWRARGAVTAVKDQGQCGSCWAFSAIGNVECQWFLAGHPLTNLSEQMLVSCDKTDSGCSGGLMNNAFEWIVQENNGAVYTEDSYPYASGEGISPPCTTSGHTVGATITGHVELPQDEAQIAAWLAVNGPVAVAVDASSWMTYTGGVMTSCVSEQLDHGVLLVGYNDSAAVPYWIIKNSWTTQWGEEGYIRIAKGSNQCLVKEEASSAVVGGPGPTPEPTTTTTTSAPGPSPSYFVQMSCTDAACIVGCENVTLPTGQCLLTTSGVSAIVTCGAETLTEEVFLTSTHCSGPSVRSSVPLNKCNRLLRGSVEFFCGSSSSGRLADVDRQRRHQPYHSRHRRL
#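 Purified cruzain at 1.5 nM, pre-incubated 15 min with compound at room temperature in 100 mM sodium acetate pH 5.5, 5 mM DTT, 0.00005% Triton X-100. Reaction started with 2 uM Z-FR-AMC; AMC fluorescence increase over 60 s gives rate.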
# MARV entry inh – qHTS for inhibitors of binding or entry into cells for Marburg Virus. Marburg virus pseudotyped entry inhibition, cell reporter; control for the full effect not named in the record; about a third of the inactives were read at about 46 µM. Potency, µM (doses to about 37.8 µM), without a hit: top-dose activity change, negative = inhibition, actives largely listed as inhibitors. 1.8% of 300,000 active; active = well fitted inhibition curve with a large enough effect; inconclusive = small, poorly fitted or top-dose-only effect, or effect the other way; inactive = flat fitted curve, though single readings scatter; tested in HEK293 cells; about a fifth of its hits are not listed in these tables; note: % is set by controls: 0 for no effect and ±100 for the full control effect; luciferase read-out
# LASV entry inh – qHTS for Inhibitors of binding or entry into cells for Lassa Virus | Potency, µM (series often up to 37.9 µM), for inactives: at the top dose activity change, negative = inhibition, most hits filed as inhibitors | Lassa virus pseudotype entry inhibition, cell reporter; control for the full effect not named in the record | 1.2% of 300,000 active | AID 540256, 2011; active means well fitted inhibition curve with a large enough effect; inconclusive means small, poorly fitted or top-dose-only effect, or effect the other way; inactive means flat fitted curve, though single readings scatter; tested in HEK293 cells; note: % is set by controls: 0 for no effect and ±100 for the full control effect; nearly all actives have a fitted effect of over 50% in size; luciferase read-out
# Cruzain inh Det – qHTS Assay for Promiscuous and Specific Inhibitors of Cruzain (with detergent) | Potency, µM, inactives show max response, negative = inhibition, hits mostly inhibitors | 0.43% of 200,000 active | purified cruzain, Z-FR-AMC fluorescence, 0.01% Triton | Cruzipain (Trypanosoma cruzi), P25779;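 note: plate controls were neutral wells for no effect and buffer without enzyme for full effect; nearly all actives have a fitted effect of over 40% in size; top concentration of the series not given in the record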
#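 Z-FR-AMC hydrolysis (2 uM substrate) by cruzain (1.5 nM) monitored kinetically at ex 360/em 450 nm after 15 min room-temperature compound exposure; 0.01% Triton X-100, pH 5.5, 5 mM DTT.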
# NS1 inh – qHTS Assay for Inhibitors of Influenza NS1 Protein Function | S. cerevisiae slowed by influenza A NS1, growth recovery by OD600 | 0.4% of 270,000 active | Potency, µM (highest dose often 46.1 µM), inactives show at the top dose activity, positive = more growth | AID 2326, 2010; active means well fitted rising curve with a large enough effect; inconclusive means small, poorly fitted or top-dose-only effect; inactive means no such curve, though single readings can be large or run the other way; note: nearly all actives have a fitted effect of over 50% in size
#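 In this qHTS, NS1 from influenza A is expressed in budding yeast, where it slows growth. Cells are switched from glucose to 2% galactose medium (pH 6.0, -URA), treated with compound, and growth recovery is read at OD600.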
# RE007 growth inh – qHTS Assay for Inhibitors of the HIV-1 protein Vpr | S. pombe RE007 Vpr strain, BacTiter-Glo ATP luminescence, 24 h; control for the full effect not named in the record | Potency, µM (highest dose often 92.2 µM), for the others: at the top dose activity change, negative = less growth | 0.21% of 360,000 active | AID 651644, 2012; active = well fitted falling curve with a large enough effect; inconclusive = small, poorly fitted or top-dose-only effect; inactive = no such curve, though single readings can be large or run the other way;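 note: % is set by controls: 0 for no effect and ±100 for the full control effect; nearly all actives have a fitted effect of over 50% in size; the assay follows cell death caused by Vpr and the record does not say whether a fall means rescue or toxicity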
#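 Fission yeast strain RE007, carrying one chromosomally integrated HIV-1 vpr copy, was seeded at OD 0.01 in PMG+AL medium with 23 nL pinned compound. After 24 h at 30 °C and 99% humidity, viability was read by BacTiter-Glo luminescence.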
# * hit, by the source's call; ? = inconclusive; / = not tested or not shown; & = joins results of further samples; [ ] = another dose, or the depositor's remark. Unless noted, calls come from the whole dose curve; as a rule, active = well fitted curve in the direction sought with a large enough effect; inconclusive = small, poorly fitted or top-dose-only effect, or another doubt; inactive = no such curve, though single readings can be large; an effect the other way counts as inactive or inconclusive. Potency is the fitted concentration of half-maximal effect.
SMILES,2A StopGo,SARS PLP yeast,Cruzain inh noDet,MARV entry inh,LASV entry inh,Cruzain inh Det,NS1 inh,RE007 growth inh
CC12CCC(C(=O)NCc3ccc4c(c3)OCO4)(CC1=O)C2(C)C (stereo not drawn),-21.8%,-5.8%,1.9%,?,-1.8%,5.3%,8.7%,-0.9%
OCCOCCNc1ncnc2c1cnn2-c1ccc(Cl)cc1,-54.3%,3.4%,12.0%,?,?,-1.2%,-10.4%,-4.8%
COc1cccc2c3cccc(OC)c3c3[nH]cnc3c12,7.1%,/,/,?,?,/,/,8.4%
O=C(CCS(=O)(=O)c1ccc(Br)cc1)N1CCN(c2ccccc2F)CC1,?,-1.2%,4.1%,?,-3.2%,-1.2%,-32.2%,-19.6%
CC(=O)Nc1ccc(S(=O)(=O)N2CCN(c3ccc([N+](=O)[O-])c(NCCN4CCOCC4)c3)CC2)cc1,-4.8%,20.4%,?,-29.0%,11.7%,-9.5%,-25.7%,/
Cc1cccc(C2c3[nH]c4ccccc4c3CCN2C(=O)c2cc3c([nH]c2=O)CCCC3)n1 (stereo not drawn),-7.5%,1.2%,/,/,/,/,-2.6%,4.9%
COc1ccc(Cc2nnc(NC(=O)c3cccc(C)c3)s2)cc1,3.9%,-0.7%,/,-0.3%[14.2 µM],?,/,-6.1%,-14.2%
COc1ccc(-c2nc(C)sc2CC(=O)O)cc1,-15.9%,-11.8%,9.6%,?,-1.3%,4.0%,5.7%,16.8%
Cc1ccc(NS(=O)(=O)c2ccc(Cl)c(NC(=S)NC(=O)C3CCCCC3)c2)cc1Cl,0.0%,-21.1%,31.6µM*,?,?,1.8%,11.3%,25.9%
Cc1cc(NC(=O)C2CC=CCC2C(=O)O)no1 (stereo not drawn),10.1%,-2.3%,-7.4%,?,23.4%,0.9%,-3.2%,0.6%
COc1ccccc1OCC(=O)NNC(=O)c1cccs1,12.9%,5.8%,-2.9%,?,-11.9%,-8.7%,4.2%,/
Cc1ccc(CN(C)C(=O)c2cccc(S(=O)(=O)N3CCCC3)c2)o1,3.0%,1.6%,/,-1.6%[46.1 µM],13.0%[46.1 µM],/,/,8.6%
O=C(NC(=S)Nc1ccc(-c2ccc(CO)o2)cc1)c1cccs1,24.7%,-2.5%,/,-1.6%[46.1 µM],0.6%,/,/,8.2%
CN(CC(=O)Nc1c(Cl)cccc1Cl)C(=O)c1n[nH]c2ccccc12,-17.8%,-6.6%,/,4.8%,-20.0%,/,/,-6.4%
CCOc1ccccc1NC(=O)C1CCCN1C(=O)OCc1ccccc1 (stereo not drawn),-16.8%,1.3%,9.5%,-4.9%[46.1 µM],15.6%,-6.5%,-11.3%,20.7%
O=S(=O)(Nc1cc(Sc2ncn[nH]2)c(O)c2ccccc12)c1ccccc1,25.1µM*,-19.8%,/,?,?,/,/,?
CC1CCN(C(=S)NCCc2ccccc2)CC1,69.9%[activator],13.9%,0.7%,-23.0%,-8.6%,-5.9%,-5.9%,7.7%
CCOn1c(=O)c(-c2cc3ccccc3o2)[n+]([O-])c2ccccc21,12.2%,-2.8%,3.6%,?,14.2%,-6.2%,-0.4%,-17.2%
Cc1ccc2cc(CN(CCc3ccccc3)C(=S)NCCCN(C)C)c(=O)[nH]c2c1,-27.4%,1.5%,/,?,?,/,11.8%,-11.7%
c1ccc(CN2CCN(c3nc(N4CCOCC4)c4ccccc4n3)CC2)cc1,?,/,/,?,-8.7%,/,/,11.7%
O=C(/C=C/Nc1ccccc1OC(F)(F)F)C(F)(F)F,-6.1%,-4.3%,9.1%,-4.4%[46.1 µM],8.6%,1.3%,-3.5%,-8.6%
CCOc1ccc(-c2cc(C(=O)NCCCn3ccnc3)c3cc(Br)ccc3n2)cc1,?,1.0%,/,?,?,/,8.2%,-4.5%
O=C(NCCCNC(=O)c1ccc(F)cc1)c1ccc(F)cc1,7.1%,2.6%,/,/,/,/,15.2%,-2.4%
Cc1ccsc1/C=N/NC(=O)Cn1nc(C)c([N+](=O)[O-])c1C,17.6%,0.3%,/,5.2%[46.1 µM],2.3%,/,-1.5%,-2.8%
COc1ccc(Br)cc1C1SCCN1S(C)(=O)=O (stereo not drawn),-10.0%,5.7%,-1.4%,?,12.0%,-0.7%,-4.7%,-9.5%
CCOC(=O)Nc1ccc(N2CCOCC2)c(S(=O)(=O)Nc2ccc(Cl)cc2)c1,35.4%[activator],-1.5%,/,10µM*,?,/,/,4.9%
COc1ccc([C@@H]2[C@@H]3C(=O)N(C(C)(C)C)C(=O)[C@@H]3[C@]3(CC(C)C)C(=O)N(c4ccc(C(F)(F)F)cc4)C(=O)N23)cc1,-7.8%,11.2%,/,/,/,/,6.6%,-1.8%
CCOC(=O)C(Cc1ccc(O)cc1)NC(=O)CNC(=O)C1CCCN1C(=O)OC(C)(C)C (stereo not drawn),0.3%,3.7%,/,5.4%[46.1 µM],8.7%[46.1 µM],/,/,14.5%
COc1ccc(CN2CCCCCC2)cc1OC,-7.9%,/,/,?,11.5%[46.1 µM],/,/,-10.2%
COc1cc(/C=C2\SC(=O)NC2=O)ccc1Oc1ccc([N+](=O)[O-])cn1,-17.8%,-0.9%,/,6.7%[46.1 µM],-0.6%,/,-1.3%,47.1%
O=C(Oc1cccnc1)c1ccc([N+](=O)[O-])cc1Cl,0.0%,0.1%,/,-0.2%,-0.3%,/,/,-23.3%
COCC(C)OC(=O)c1c(N)n(Cc2ccco2)c2nc3ccccc3nc12 (stereo not drawn),-21.8%,-2.4%,/,4.5%&-28.0%,-7.7%,/,/,-2.3%
Cc1sc2nc(CN3CCCC3)nc(Cl)c2c1C,-22.2%,-16.6%,-27.5%,?,12.0%,0.1%,-17.8%,-0.2%
CCN1C(=O)c2ccccc2S(=O)c2ccc(C(=O)N3CCCC3)cc21 (stereo not drawn),-8.4%,-1.9%,-5.4%,0.6%,/,-0.4%,6.2%,6.0%
Cc1nc(N2CCN(Cc3ccc4c(c3)OCO4)CC2)nc2c1C(=O)CC(c1ccco1)C2 (stereo not drawn),-29.5%,-6.2%,-1.5%,?,-8.9%,-8.4%,-2.6%,-0.4%
CC(C)Sc1nc2c(c(=O)n1C)SC(C)C2 (stereo not drawn),0.0%,-8.6%,-11.8%,/,/,-2.5%,-63.8%,-1.8%
CCOc1ccc(S(=O)(=O)N(C)C)cc1-c1nc2c(C(C)(C)C)nn(C)c2c(=O)[nH]1,/,-11.9%,?,2.0%&7.7%,-20.4%,0.8%,6.1%,7.0%
Cc1ccc(C(=O)N2CCN(S(=O)(=O)c3ccc(C(C)C)cc3)CC2)s1,?,-1.2%,/,-29.3%,-1.4%,/,/,24.9%
C=CCNC(=S)N(CC)c1cccc2ccccc12,-16.7%,0.2%,/,?,-16.8%,/,3.1%,11.1%
CNC(=O)CSc1nnc(-c2ccc3c(c2)OCO3)n1C,-14.6%,1.0%,/,7.3%,2.2%,/,5.8%,2.8%
Cn1ccnc1,/,/,-3.6%,10.0%&10.0%&10.0%&3.8%&10.0%,?,2.4%,-0.7%,/
O=C(c1cccc(Cl)c1)N1CCn2c1nc1ccccc12,-1.1%,-0.5%,/,-1.2%[46.1 µM],30.0%,/,-0.3%,3.7%
CCCn1c(N)c(N(CCOC)C(=O)c2cc3c(s2)CCCCC3)c(=O)[nH]c1=O,-7.5%,0.0%,/,-16.3%,14.7%,/,11.1%,2.0%
O=C(NC(NC1CCS(=O)(=O)C1)C(Cl)(Cl)Cl)c1ccc(Br)cc1 (stereo not drawn),-22.2%,-4.1%,9.8%,-23.8%,-1.6%,-2.3%,-5.7%,0.9%
Clc1cc(Cl)cc(CN2CCSCC2)c1,0.2%,0.9%,/,/,/,/,4.5%,-13.8%
CCOc1ccccc1NC(=O)CCCN1C(=S)NC(C)(C)CC1C (stereo not drawn),-8.6%,-4.1%,7.4%,?,11.3%,0.4%,-6.6%,-5.5%
C=C(C)c1cccc(C(C)(C)NC(=O)Nc2ccc(C(C)=O)cc2)c1,-9.6%,22.5%,-4.9%,?,-5.6%,-4.6%,5.4%,/
CCSc1nnc(NC(=O)C(C)(C)C)s1,43.6%[activator],-4.4%,-7.1%,-12.9%[46.1 µM],13.9%,-0.3%,-1.6%,-3.1%
O=C(CNC(=O)c1ccccc1Cl)N/N=C/c1ccc2c(c1)OCO2,33.1%,1.3%,/,?,13.6%[46.1 µM],/,5.9%,-1.5%
COc1ccc(C(C(=O)NC(C)(C)C)N(Cc2cccnc2)C(=O)CCC(=O)Nc2cc(C)on2)cc1 (stereo not drawn),12.6%,2.4%,/,-19.8%[46.1 µM],?,/,-6.1%,-3.1%
COc1ccc(NC(=O)C2CC(c3c(F)cccc3Cl)=NO2)cc1 (stereo not drawn),28.8%,-4.7%,/,/,/,/,-7.8%,-2.3%
CCCC(C(=O)NC1CCCC1)N(CCN(CC)CC)C(=O)c1snc(C(N)=O)c1N (stereo not drawn),-5.1%,0.5%,/,-12.1%[46.1 µM],-7.4%[46.1 µM],/,-0.9%,-6.0%
Cc1ccc(O)c(C(=O)c2cnn(C(=O)COc3ccc(Cl)cc3)c2)c1,-4.3%,5.5%,?,-1.1%,-15.3%,-7.1%,-18.7%,7.1%
CCN(CC)CCCN1C(=O)C(O)=C(C(=O)c2sc(C)nc2C)C1c1ccc(C)o1 (stereo not drawn),/,5.1%,-1.7%,-2.7%,/,4.3%,-10.2%,/

# Rows were taken by chance; any-hit rate near 4.6%.
